High-throughput results as filed in PubChem BioAssay.
Arbovirus inh = antivirals against arbovirus infection, primary screen, cell-based, full library, 10K replicate subset. inhibition, % at 10 µM. 200,000 tested, 0.37% active. arbovirus infection cell-based antiviral screen. AID 1251, 2008;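 active = inhibition from about 30%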;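 also: bluetongue infection of BSR cells; cell survival read as ATP light after 72 h; 0% = infected wells without compound and 100% = uninfected wells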
Mtb growth = M. tuberculosis H37Rv growth inhibitors, H37Rv strain (AID 1626); inhibition, % at 10 µM; hits with a dose series show IC50 in µM; M. tuberculosis H37Rv growth inhibition; higher % means a stronger effect; 220,000 tested, 0.95% active;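 active = confirmed in a dose series; inconclusive = inhibition above 80% but not taken into the dose series; inactive = below 80% or under 30% at every dose of the series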;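 also: bacteria incubated seven days before Alamar blue readout; 0% = bacteria only wells and 100% = bacteria with antibiotic wells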
RecA intein inh = Mtb RecA intein splicing inhibitors, primary screen, biochemical, fluorescence, HTS; cell-free RecA intein splicing; inhibition, %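 (about 9 µM by stock and volumes)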; 290,000 tested, 0.75% active; in the data active = inhibition above about 30%; inconclusive = no clear call, values can overlap the other calls;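 also: 0% = vehicle wells and 100% = reference inhibitor control wells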
Target sequence (P9WHJ3 whole entry, looked up): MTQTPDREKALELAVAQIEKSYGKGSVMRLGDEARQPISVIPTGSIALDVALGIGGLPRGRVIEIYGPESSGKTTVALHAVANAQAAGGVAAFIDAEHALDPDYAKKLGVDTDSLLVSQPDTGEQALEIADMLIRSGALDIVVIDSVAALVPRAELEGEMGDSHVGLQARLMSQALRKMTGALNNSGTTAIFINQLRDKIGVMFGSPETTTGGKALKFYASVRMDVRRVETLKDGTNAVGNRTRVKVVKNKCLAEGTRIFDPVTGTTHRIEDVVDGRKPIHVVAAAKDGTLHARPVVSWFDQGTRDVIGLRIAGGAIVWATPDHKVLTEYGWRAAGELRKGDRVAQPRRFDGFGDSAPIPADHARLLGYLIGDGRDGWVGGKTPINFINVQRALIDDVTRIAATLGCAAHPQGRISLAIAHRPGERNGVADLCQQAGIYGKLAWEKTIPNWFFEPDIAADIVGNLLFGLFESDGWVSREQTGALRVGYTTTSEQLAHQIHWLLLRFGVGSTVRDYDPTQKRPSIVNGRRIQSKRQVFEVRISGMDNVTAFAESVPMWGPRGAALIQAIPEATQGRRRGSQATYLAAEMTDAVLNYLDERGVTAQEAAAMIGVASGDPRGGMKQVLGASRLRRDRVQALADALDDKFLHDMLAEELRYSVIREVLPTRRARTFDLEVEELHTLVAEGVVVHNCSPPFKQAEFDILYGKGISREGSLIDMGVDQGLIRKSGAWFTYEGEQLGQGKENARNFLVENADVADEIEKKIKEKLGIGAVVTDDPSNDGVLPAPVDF
Mtb bLac sens = beta-lactam sensitization of Mtb H37Rv, H37Rv | M. tuberculosis H37Rv growth with meropenem, percent inhibition; hits of this screen are not shown here | inhibition, % at 25 µM | 330,000 tested, 0.27% active;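 active = about 74% or more and at least 40 points above the plate without the antibiotic, then above 30% in a dose series; inconclusive = first-round hits that could not be retested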;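 also: growth measured after seven days incubation then overnight dye step; 0% = bacteria only wells and 100% = bacteria with antibiotic; twin plates without the antibiotic show which effects depend on it; some results filed as inactive read as strong as hits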
YopH inh = YopH tyrosine phosphatase inhibitors, primary screen, biochemical, fluorescence Ex485/Em525; YopH tyrosine phosphatase [Yersinia enterocolitica]; inhibition, %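 (about 10 µM by stock and volumes)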; 140,000 tested, 0.16% active; AID 898, 2007;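 active = inhibition of 50% or more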;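 also: controls were vehicle for no effect and minimum signal wells for full effect; inactives centre near -20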
Arbovirus inh repeat = also measured in Arbovirus inh; calls as there; inhibition, %; measured here: 10K subset replicate screen; many hits read low in the repeat;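 first of two repeat runs on a subset; 0% = infected and 100% = uninfected wells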
An asterisk follows results filed as active; ? = inconclusive; · = not tested or not shown. Only part of the results is shown; rates above refer to the full screens.

The opening five compounds, to show the layout:
SMILES	Arbovirus inh	Mtb growth	RecA intein inh	Mtb bLac sens	YopH inh	others
COc1cc(CNC(=O)c2cnc(C)cn2)cc(OC)c1	·	·	2.0	-14	·
COc1ccccc1N1CCN(Cc2nc(N)nc(Nc3ccc(C)c(Cl)c3)n2)CC1	-10	8.4µM*	-1.0	94	4
Cc1cccc(NC(=S)NC2CC3CCC(C2)N3Cc2ccco2)c1 (centres undefined)	7	-6%	1.1	2	-38
COc1ccc(-n2c(SCC(=O)NCC3CCCO3)nc3c([nH]c4ccccc43)c2=O)cc1OC (centres undefined)	·	·	-2.7	-5	·
O=C(/C=C/c1ccc(Cl)cc1Cl)N1CCN(c2ccccc2[N+](=O)[O-])CC1	11	21%	-1.4	4	-26

The listing (from the top)
SMILES	Arbovirus inh	Mtb growth	RecA intein inh	Mtb bLac sens	YopH inh	others
COc1cc(CNC(=O)c2cnc(C)cn2)cc(OC)c1	·	·	2.0	-14	·
COc1ccccc1N1CCN(Cc2nc(N)nc(Nc3ccc(C)c(Cl)c3)n2)CC1	-10	8.4µM*	-1.0	94	4
Cc1cccc(NC(=S)NC2CC3CCC(C2)N3Cc2ccco2)c1 (centres undefined)	7	-6%	1.1	2	-38
COc1ccc(-n2c(SCC(=O)NCC3CCCO3)nc3c([nH]c4ccccc43)c2=O)cc1OC (centres undefined)	·	·	-2.7	-5	·
O=C(/C=C/c1ccc(Cl)cc1Cl)N1CCN(c2ccccc2[N+](=O)[O-])CC1	11	21%	-1.4	4	-26
COc1cccc(N(CC(=O)NCc2ccccc2)C(=O)CCC(=O)Nc2nccs2)c1	·	·	-1.8	-6	·
COc1ccc(-c2cc(C(=O)NC3CC3)c3ccccc3n2)cc1	·	·	6.5	7	·
Cc1ccccc1-n1c(C)nnc1SCC(=O)N1CC(=O)Nc2ccccc21	4	2%	5.0	0	-24
CS(=O)(=O)N(Cc1ccccc1)c1ccc(C(=O)NC2CCCCC2O)cc1 (centres undefined)	7	0%	1.5	-3	-43
CC1SC(=NC(=O)c2ccncc2)NC1=O (centres undefined)	6	-5%	-2.7	-9	·
CCOc1ccccc1NC(=O)CSc1nnc(-c2ccccn2)n1Cc1ccco1	5	-2%	·	7	-24	Arbovirus inh repeat=-3
CC(Oc1ccccc1)C(=O)Nc1oc(-c2ccco2)c(-c2ccco2)c1C#N (centres undefined)	-3	0%	0.5	7	-29
CN(CC(=O)NCCC1=CCCCC1)S(=O)(=O)c1ccc2c(c1)c(=O)n(C)c(=O)n2C	-2	0%	·	8	-23	Arbovirus inh repeat=-8
COc1ccccc1-c1nnc(NC(=O)C(C)Sc2nncn2C)s1 (centres undefined)	10	7%	0.5	1	·
C[C@@H]1CC[C@@]2(O[C@H](CCO)C[C@H](O)[C@H]2O)O1	2	-10%	-0.4	-7	·
COc1ccccc1-c1nnc(SCC(=O)O)n1C	-1	1%	2.5	2	-47
c1ccc(C(CN2CCOCC2)c2ccccc2)cc1	-5	-1%	-0.1	-7	-37
Cc1ccc(NCc2nnc(SCC(N)=O)n2CC2CCCO2)c(C)c1 (centres undefined)	-6	-3%	0.2	1	18
COC(=O)c1ccc(NC(=O)CN2CCN(S(=O)(=O)c3ccc(Br)cc3)CC2)cc1	·	·	0.4	2	·
O=C(CCN1CCN(C/C=C/c2ccccc2)CC1)Nc1ccccc1	0	-9%	8.3	3	12
COc1ccc(C(=O)COC(=O)CCN2C(=O)C3C4C=CC(C5CC45)C3C2=O)cc1 (centres undefined)	·	·	2.1	7	·
CCOc1ccc(NC(=O)N2CC(C)OC(C)C2)cc1 (centres undefined)	·	·	-1.3	4	·
NC(=O)C1CCN(C(=O)c2ccc(C(F)(F)F)cc2)CC1	1	-4%	-0.4	-17	2
Clc1ccc(Cn2ncc3c(NCc4cccnc4)ncnc32)cc1	14	3%	5.1	32	41
CCC(=O)Nc1cccc(NC(=O)CSc2nnc(C3CC3)n2C)c1	3	11%	-2.1	-7	-43

Reprinted at random: 3 compounds from above.
SMILES	Arbovirus inh	Mtb growth	RecA intein inh	Mtb bLac sens	YopH inh	others
c1ccc(C(CN2CCOCC2)c2ccccc2)cc1	-5	-1%	-0.1	-7	-37
COc1ccc(C(=O)COC(=O)CCN2C(=O)C3C4C=CC(C5CC45)C3C2=O)cc1 (centres undefined)	·	·	2.1	7	·
CS(=O)(=O)N(Cc1ccccc1)c1ccc(C(=O)NC2CCCCC2O)cc1 (centres undefined)	7	0%	1.5	-3	-43

Next part:
SMILES	Arbovirus inh	Mtb growth	RecA intein inh	Mtb bLac sens	YopH inh	others
CN1CCN(C(=O)N2CCNC2=O)CC1	10	-5%	1.4	?	-37
Cn1nnnc1SCc1ccc(CSc2nnnn2C)cc1	7	-3%	0.5	4	·
CCOc1ccccc1N1CCN(C(=S)Nc2ccc(S(N)(=O)=O)cc2)CC1	11	2%	2.0	-2	-3
CCc1ccc(CC(=S)N2CCOCC2)cc1	5	0%	4.0	-4	·
COc1ccccc1/C=C1\SC(=O)N(CCC(=O)N(C)C2CCS(=O)(=O)C2)C1=O (centres undefined)	·	·	1.4	-10	·
Cc1ccc2nc(-c3ccc(NC(=O)CSc4nc(N)cc(=O)[nH]4)cc3)sc2c1	·	1%	-3.2	-5	·
COc1cccc(-c2c(C#N)c(N)nc3c2c(C)nn3-c2ccccc2)c1O	·	·	-9.3	63	·
CO/N=C/NC(=O)c1c(OC)ccnc1Oc1ccccc1	6	-4%	-0.8	-2	-3
COc1ccc(-c2noc3c2-c2nc(-c4ccc(Cl)cc4)sc2CC3)cc1	·	·	0.4	-5	·
CC1CC(C)CN(CCCNC(=O)CN2C(=O)CSc3ccc(S(=O)(=O)N4CCOCC4)cc32)C1 (centres undefined)	·	·	-2.2	0	·
O=C(OCC(=O)N1CCCC1)c1ccc(OC(F)(F)F)cc1	11	2%	·	0	·
COc1cc2cc[n+](Cc3ccc([N+](=O)[O-])cc3)cc2cc1OC	·	·	-2.1	-2	·
O=C(O)Cc1ccc(NC(=O)Nc2ccc(Br)cc2)cc1	18	-1%	2.5	-2	·
COc1cc(C#N)ccc1OC(=O)c1cccc(S(=O)(=O)N2CCN(C)CC2)c1	·	·	-0.4	-3	·
COc1ccccc1C(=O)NCC(=O)N/N=C/c1ccc2c(c1)OCO2	·	·	-0.1	6	·
O=C(NCC1CCCO1)c1ccc(Oc2ccc([N+](=O)[O-])cc2Cl)cc1 (centres undefined)	6	2%	-1.9	-1	·
CCC(Sc1nc(=O)cc(N)n1-c1cccc(C)c1)C(=O)Nc1cc(C)on1 (centres undefined)	11	-3%	0.0	-5	4
CCOC(=O)c1c(S(=O)(=O)Nc2cccc(Cl)c2)c(C)n(C)c1C	·	·	-4.7	-9	·
Cc1ccc(CNC(=S)Nc2ccc(NS(=O)(=O)c3ccc(C)cc3)cc2)cc1	·	·	-0.4	3	·
O=C(C[n+]1ccn(CCCNP2(=O)C=C(c3ccccc3)OC(c3ccccc3)=C2)c1)c1ccccc1	4	9%	-0.3	27	·
O=C(CSc1ncn[nH]1)Nc1ccc2c(c1)CCC2	12	18%	2.1	27	-20
N#CC1=C(C=Nc2ccccc2O)CCC1	0	-8%	-0.2	?	-5
O=C(c1cc2c(s1)CCCCCC2)N1CCC2(CC1)OCCO2	3	-4%	0.6	2	-11
CCCC(=O)NC(c1ccc2c(c1)OCO2)c1cc(Cl)c2cccnc2c1O (centres undefined)	-24	-4%	0.9	10	-25
CC1CC(C)CN(C(=O)c2ccc3c(=O)n(Cc4ccc5c(c4)OCO5)c(=S)[nH]c3c2)C1 (centres undefined)	7	-8%	0.5	0	-22
Going on with the list:
SMILES	Arbovirus inh	Mtb growth	RecA intein inh	Mtb bLac sens	YopH inh	others
CCCCNC(=O)CO/N=C(\C)c1cc2ccccc2o1	1	2%	-0.2	7	-16
N/C(CCS(=O)(=O)c1ccc(Cl)cc1)=N\OC(=O)c1ccccc1C(F)(F)F	·	-17%	·	-8	·
Cn1c(=O)[nH]c(=O)c2c1nc(SCCO)n2CC(O)COc1ccccc1 (centres undefined)	6	2%	-1.3	-5	·
c1ccc(-c2ccc(CN3C[C@@H]4C(c5ccccc5)C5(c6cccnc6)CC4(C5)[C@H]3c3ccccc3)cc2)cc1 (some centres undefined)	·	16%	16	2	·
Cc1ccc(Sc2oc(/C=N/n3cnnc3)cc2Br)cc1	-2	10%	62*	8	-23	Arbovirus inh repeat=2
CC(=O)N1CCN(Cc2nc3cc(NC(=O)c4cccc(Br)c4)ccc3n2C)CC1	·	2%	5.2	16	·
CC(C)(O)C(O)COc1c2ccoc2cc2oc(=O)ccc12 (centres undefined)	0	-7%	-4.1	-6	·	Arbovirus inh repeat=2
COc1ccc(NC2CCCN(C(=O)c3ccc(C(C)=O)s3)C2)cc1 (centres undefined)	·	·	-5.5	-3	·
O=S(=O)(c1ccc(F)cc1)c1nc(-c2ccco2)oc1Nc1ccccc1	1	6%	8.7	1	-26
CC(C)c1ccccc1NC(=O)c1cccnc1	-5	-3%	2.8	-12	-31
Cc1cccc(OCCn2c(=O)sc3ccccc32)c1	-3	13%	11	2	14
O=C(Nc1ccc(O)c2c(=O)cc(-c3ccccc3Cl)oc12)c1ccc(F)cc1	·	-2%	2.1	·	·
CCn1c(O)c(C=NCc2ccccc2)sc1=S	·	-3%	7.7	-2	·
COC(=O)CNC(=O)/C=C/c1ccc(OC)cc1	1	-7%	7.3	4	-27
COc1ccc(S(=O)(=O)Nc2ccc(NC(C)=O)cc2)cc1Br	2	3%	-2.1	-5	·
Cc1ccc(C(C(=O)NC2CCCC2)N(Cc2ccc3c(c2)OCO3)C(=O)c2snc(C(N)=O)c2N)cc1 (centres undefined)	·	·	-0.4	-3	·
CC(Sc1nc2ccccc2s1)C(=O)N1CCOCC1 (centres undefined)	2	7%	-3.2	-3	-2	Arbovirus inh repeat=3
CC(=O)Nc1ccc(NC(=O)c2ccc(N(Cc3ccccc3C)S(C)(=O)=O)cc2)cc1	·	·	-3.9	-1	·
Cc1ccc(N(CC(=O)NCc2ccccc2)S(=O)(=O)c2c(C)noc2C)cc1	·	·	-2.5	-3	·
Cc1cc(C)c2c(=O)[nH]c(SCc3ccccc3C)nc2n1	-6	6%	-1.0	1	·
O=C(Cc1ccccc1)Nc1ccc(NC(=O)c2cccs2)cc1Cl	-7	0%	0.9	-2	·
Oc1ccc(/C=C/c2ccnc3ccccc23)cc1	-19	18%	-1.2	4	-22
Cn1c(=O)c2c(nc(OCC3COC(C)(C)O3)n2Cc2ccccc2F)n(C)c1=O (centres undefined)	4	-3%	-1.9	-4	-15
O=C(N1CCOCC1)N1CCC(n2nnc3cc(F)ccc32)CC1	8	-10%	4.4	?	13
O=S(=O)(c1ccccc1Oc1ccc(Cl)cc1Cl)N1CCCCC1	·	-11%	0.1	3	·
(cont.)
SMILES	Arbovirus inh	Mtb growth	RecA intein inh	Mtb bLac sens	YopH inh	others
COc1ccc(OC)c(/C=N\NC(=O)c2ccc(-c3ccccc3)cc2)c1	·	·	-4.3	3	·
CCNC(=O)NC(=O)CSc1nnc(-c2c[nH]c3ccccc23)o1	·	·	-2.8	-8	·
CCc1ccc(S(=O)(=O)Nc2cccc(-c3ccc4nncn4n3)c2)s1	-9	·	0.3	4	·
COc1ccccc1CNC(=O)[C@@H](NC(=O)C1CCN(C(=O)[C@@H]2CCCN2C(=O)OC(C)(C)C)CC1)C(C)C	·	·	0.5	-1	·
C/C(NCC(C)(C)CN(C)C)=C(/C#N)C(=O)NCc1ccccc1	-9	-10%	1.4	-5	-31
CCOC(=O)c1sc(/N=C/c2c(O)n(-c3ccccc3)c(=O)[nH]c2=O)c(C#N)c1C	0	-5%	2.9	?	9
CC1=C(C(=O)Nc2ccccc2C)C2(CCCCC2)C(C(N)=O)C(=S)N1 (centres undefined)	11	8%	-1.0	-2	-12
CCOC(=O)N1CCc2c(sc3c2c(=O)n(Cc2ccccc2)c(=O)n3Cc2ccccc2F)C1	-4	·	1.7	-4	-20
CCCCCCCN1C(Nc2ccccc2)=NC[C@@H]1Cc1ccccc1	·	·	6.5	74	·
CCC(C(=O)Nc1sc(C(N)=O)c(C)c1C(=O)OC)c1ccccc1 (centres undefined)	-28	5%	1.5	3	·
N=C(c1ccc([N+](=O)[O-])cc1)N1CCCCCC1	-2	1%	-0.4	-1	·
O=C(CNC(=O)c1ccccc1)N/N=C/c1cc(Br)ccc1O	-18	0%	1.1	3	-34
COc1ccc(C(=O)NC2CCN(Cc3c(F)cccc3Cl)CC2)cc1OC	·	·	-0.4	5	·
O=C(CC1CCCC1)Nc1ccc2c(c1)CCC2	-7	5%	4.0	1	1
COCCCNC(=O)CCn1c(=O)c2ccccc2n(CC(=O)NCCC2=CCCCC2)c1=O	2	-2%	1.5	0	·
Cc1c(C(=O)N2CCCCC2)c(S(=O)(=O)NCc2ccc(F)cc2)c(C)n1C	·	·	-1.2	1	·
